Source: PubChem BioAssay (Broad Institute)
Yeast UUG start – modulators of start codon recognition fidelity in yeast; S. cerevisiae UUG-firefly luciferase reporter, luminescence/redox ratio; AID 602363; actives 0.13% (n = 350,000); activity score, % at 18.7 µM;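 active means replicate mean at a twofold rise or more, about +100% in these data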;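 further: firefly luciferase made from a UUG start codon reports start codon fidelity; reporter light over untreated wells divided by growth signal over untreated wells; some hits fall short of that in this replicate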
HIV Env fusion – HIV envelope-mediated fusion inhibition; inhibition, % at 12.3 µM; actives 1.1% (n = 360,000); HeLa-JRFL Env/CEM21 cell fusion, luciferase;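 active means mean replicate inhibition score of at least 50 and every replicate individually at or above 50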;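 further: 0% = plate neutral controls and 100% = maraviroc near 300 nM; one replicate is shown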
* hit, by the source's call; [ ] = dose if it differs, or a comment. Some of the compounds tested (hit frequency here may not be typical).

Yeast UUG start	HIV Env fusion	SMILES
-5	-16[16.7 µM]	C[C@@H]1CCCCO[C@@H](CN(C)C(=O)Nc2ccccc2)[C@H](C)CN([C@H](C)CO)C(=O)c2cc(NS(=O)(=O)c3ccc(Cl)cc3)ccc2O1
1	5[16.7 µM]	CNC[C@@H]1Oc2ncc(-c3ccc(OC)cc3)cc2C(=O)N([C@H](C)CO)C[C@H]1C
5	-9[16.7 µM]	C[C@H]1CN([C@@H](C)CO)C(=O)Cc2cc(NC(=O)C3CCCCC3)ccc2O[C@@H]1CN(C)C(=O)Nc1ccc(F)cc1
-5	13[16.7 µM]	CC(=O)N(C)C[C@H]1Oc2cc(-c3ccccc3)ccc2S(=O)(=O)N([C@@H](C)CO)C[C@@H]1C
-1	-8[16.7 µM]	Cc1ccc(S(=O)(=O)N(C)C[C@@H]2OCCCC[C@H](C)Oc3ccc(NC(=O)c4ccncc4)cc3C(=O)N([C@@H](C)CO)C[C@H]2C)cc1
-10	-4[16.7 µM]	O=C(Nc1ccc(F)cc1)N[C@@H]1CC[C@H](CC(=O)N2CCCCC2)O[C@H]1CO
2	-4[16.7 µM]	C[C@H](CO)N1C[C@H](C)[C@H](CN(C)Cc2ccccc2)Oc2ccc(NC(=O)Cc3ccccc3)cc2C1=O
-7	-14[16.7 µM]	C[C@H]1CN([C@@H](C)CO)S(=O)(=O)c2ccc(C#Cc3ccccc3F)cc2O[C@H]1CN(C)C(=O)Cc1cccnc1
3	14[16.7 µM]	C[C@@H]1CN([C@H](C)CO)C(=O)Cc2cc(NC(=O)C3CC3)ccc2O[C@@H]1CN(C)Cc1ccc(C(=O)Nc2ccccc2N)cc1
5	0[16.7 µM]	CO[C@H]1CN(C)C(=O)c2ccc(NC(=O)Nc3ccccc3)cc2OC[C@H](C)N(CC2CC2)C[C@H]1C
-5	-10[16.7 µM]	C[C@@H]1CCCCO[C@H](CN(C)C)[C@H](C)CN([C@@H](C)CO)C(=O)c2cc(N(C)C)ccc2O1
-1	-4[16.7 µM]	C[C@@H]1CCCCO[C@@H](CN(C)C(=O)Nc2ccc3c(c2)OCO3)[C@@H](C)CN([C@H](C)CO)C(=O)c2cc(NC(=O)Cc3ccccc3)ccc2O1
-2	32[16.7 µM]	C[C@@H]1CN([C@@H](C)CO)C(=O)c2cc(NS(=O)(=O)c3ccc(F)cc3)ccc2O[C@@H]1CN(C)Cc1ccc(C(=O)O)cc1
-7	18[16.7 µM]	COc1ccc(S(=O)(=O)N(C)C[C@@H]2OCCCC[C@H](C)Oc3ccc(NC(=O)Nc4ccc5c(c4)OCO5)cc3C(=O)N([C@H](C)CO)C[C@H]2C)cc1
11	11[16.7 µM]	CC(C)NC(=O)N(C)C[C@H]1Oc2ccc(NC(=O)C3CC3)cc2CC(=O)N([C@@H](C)CO)C[C@H]1C
-8	5[16.7 µM]	CN(C)CC(=O)N[C@@H]1CC[C@H](CC(=O)NCCN2CCCCC2)O[C@H]1CO
1	-30[16.7 µM]	C[C@H]1CCCCO[C@H](CN(C)Cc2ccc3c(c2)OCO3)[C@@H](C)CN([C@@H](C)CO)C(=O)c2cc(NS(=O)(=O)c3ccccc3)ccc2O1
3	2[16.7 µM]	O=C(O)C[C@H]1C[C@H]2c3cc(NC(=O)NC4CCCCC4)ccc3O[C@H]2[C@@H](CO)O1
-4	12[16.7 µM]	Cc1noc(C)c1NC(=O)N(C)C[C@@H]1OCCCC[C@H](C)Oc2ccc(NC(=O)CCC(F)(F)F)cc2C(=O)N([C@H](C)CO)C[C@@H]1C
2	6[16.7 µM]	CCCNC(=O)C[C@H]1C[C@@H]2c3cc(NS(=O)(=O)c4ccccc4)ccc3O[C@@H]2[C@@H](CO)O1
13	-38[16.7 µM]	Cc1noc(C)c1NC(=O)Nc1ccc2c(c1)C(=O)N([C@H](C)CO)C[C@H](C)[C@@H](CN(C)S(=O)(=O)c1ccc(Cl)cc1)O2
11	24[16.7 µM]	Cc1ccc(S(=O)(=O)Nc2ccc3c(c2)C(=O)N([C@@H](C)CO)C[C@H](C)[C@H](CN(C)Cc2ccc(C(=O)O)cc2)OCCCC[C@H](C)O3)cc1
-11	-19[16.7 µM]	O=C(N[C@H]1CC[C@@H](CC(=O)N2CCOCC2)O[C@@H]1CO)c1ccc2c(c1)OCO2
64	2[16.7 µM]	Cc1ccc(S(=O)(=O)Nc2ccc3c(c2)C(=O)N([C@@H](C)CO)C[C@H](C)[C@H](CN(C)C(=O)c2ccncc2)OCCCC[C@@H](C)O3)cc1
1	8[16.7 µM]	C[C@@H]1CCCCO[C@@H](CN(C)C(=O)Nc2ccc3c(c2)OCO3)[C@H](C)CN([C@@H](C)CO)C(=O)c2cc(NS(=O)(=O)c3ccc(F)cc3)ccc2O1
-4	-3[16.7 µM]	CN(C)Cc1cn(CC[C@H]2CC[C@H](NC(=O)Nc3ccccc3F)[C@H](CO)O2)nn1
-3	-12[16.7 µM]	COc1ccc(S(=O)(=O)Nc2ccc3c(c2)CC(=O)N([C@@H](C)CO)C[C@H](C)[C@H](CN(C)CC2CCCCC2)O3)cc1
-1	20[16.7 µM]	C[C@H](CO)N1C[C@H](C)[C@H](CN(C)Cc2ccc(C(F)(F)F)cc2)Oc2ccc(NS(=O)(=O)c3ccc(F)cc3)cc2C1=O
10	1[16.7 µM]	C[C@@H]1CCCCO[C@H](CN(C)C(=O)C2CCCCC2)[C@@H](C)CN([C@@H](C)CO)C(=O)c2cc(NC(=O)NC3CCCCC3)ccc2O1
-5	-3[16.7 µM]	CO[C@@H]1CN(C)C(=O)c2cc(NC(C)=O)ccc2OC[C@H](C)N(C(=O)CN(C)C)C[C@@H]1C
1	0[16.7 µM]	C[C@@H]1CN([C@@H](C)CO)C(=O)c2cc(C#CC3CCCCC3)cnc2O[C@@H]1CN(C)C(=O)Nc1ccccc1
3	-8[16.7 µM]	C[C@H]1CN([C@@H](C)CO)C(=O)Cc2cc(NC(=O)Nc3ccc(F)cc3)ccc2O[C@@H]1CN(C)Cc1ccc(Oc2ccccc2)cc1
-7	0[16.7 µM]	C[C@@H]1CN([C@H](C)CO)C(=O)c2cccc(N(C)C)c2O[C@@H]1CN(C)Cc1ccc(Cl)c(Cl)c1
-1	0[16.7 µM]	O=C(NCC[C@H]1CC[C@@H](NS(=O)(=O)c2cccc(F)c2)[C@@H](CO)O1)C1CC1
40	-10[16.7 µM]	C/C=C/c1ccc2c(c1)O[C@@H](CN(C)C(=O)c1ccc(F)cc1)[C@H](C)CN([C@@H](C)CO)S2(=O)=O
17	3[16.7 µM]	Cc1noc(C)c1S(=O)(=O)Nc1ccc2c(c1)C(=O)N([C@@H](C)CO)C[C@H](C)[C@H](CN(C)C)OCCCC[C@H](C)O2
184*	-21[16.7 µM]	O=C(CN1CCOCC1)NCC[C@H]1CC[C@H](NC(=O)Nc2ccc(F)cc2)[C@H](CO)O1
2	4[16.7 µM]	C[C@@H]1CN([C@@H](C)CO)C(=O)c2cc(NC(=O)c3ccncc3)ccc2O[C@@H](C)CCCCO[C@H]1CN(C)C(=O)C1CCCCC1
-13	-4[16.7 µM]	O=C(C[C@@H]1CC[C@@H]2NC[C@@H](O)COC[C@H]2O1)NCCN1CCCCC1
13	59*[16.7 µM]	Cc1noc(C)c1S(=O)(=O)Nc1cccc2c1O[C@H](CN(C)Cc1ccc(C(F)(F)F)cc1)[C@H](C)CN([C@H](C)CO)C2=O
2	3[16.7 µM]	C[C@H](CO)N1C[C@H](C)[C@@H](CN(C)S(=O)(=O)c2ccccc2)OCCCC[C@H](C)Oc2ccc(NC(=O)c3ccncc3)cc2C1=O
-1	-9[16.7 µM]	C[C@@H]1CN([C@H](C)CO)C(=O)c2cccc(NS(=O)(=O)c3ccc(Cl)cc3)c2O[C@@H]1CN(C)S(C)(=O)=O
-11	27[16.7 µM]	O=C(C[C@@H]1CC[C@H](NC(=O)Nc2ccc(C(F)(F)F)cc2)[C@@H](CO)O1)NCc1ccccn1
-8	-13[16.7 µM]	C[C@@H]1CN([C@H](C)CO)C(=O)Cc2cc(NC(=O)CCN3CCOCC3)ccc2O[C@@H]1CN(C)Cc1ccc(C(=O)O)cc1
15	0[16.7 µM]	C[C@H]1CCCCO[C@H](CN(C)C(=O)C2CCCCC2)[C@@H](C)CN([C@@H](C)CO)C(=O)c2cc(NC(=O)CCCN(C)C)ccc2O1
-9	21[16.7 µM]	C[C@@H]1CCCCO[C@H](CN(C)S(=O)(=O)c2ccc(Cl)cc2)[C@H](C)CN([C@@H](C)CO)C(=O)c2cc(NC(=O)c3ccccc3)ccc2O1
14	-4[16.7 µM]	Cc1cc(C(=O)Nc2ccc3c(c2)C(=O)N(C)[C@@H]2CC[C@H](CC(=O)N[C@H](C)c4ccccc4)O[C@H]2CO3)no1
14	9[16.7 µM]	COCCNC(=O)C[C@H]1C=C[C@H](NS(=O)(=O)c2ccc(C)cc2)[C@@H](CO)O1
-19	-10[16.7 µM]	C[C@H]1CN([C@@H](C)CO)S(=O)(=O)c2ccc(-c3cncnc3)cc2O[C@H]1CN(C)Cc1ccccc1
17	0[16.7 µM]	C[C@@H]1CN([C@@H](C)CO)C(=O)c2cc(NC(=O)C3CC3)ccc2O[C@H]1CN(C)CC1CCCCC1
-13	4[16.7 µM]	C[C@@H]1CCCCO[C@@H](CN(C)S(=O)(=O)c2ccc(F)cc2)[C@@H](C)CN([C@H](C)CO)C(=O)c2cc(NC(=O)Nc3ccc(F)cc3)ccc2O1
-7	-8[16.7 µM]	COc1ccc(-c2ccc3c(c2)O[C@H](CN(C)Cc2cccnc2)[C@@H](C)CN([C@@H](C)CO)S3(=O)=O)cc1
3	23[16.7 µM]	CC(C)C#Cc1cnc2c(c1)C(=O)N([C@H](C)CO)C[C@H](C)[C@@H](CN(C)Cc1ccccc1F)O2
6	1[16.7 µM]	COc1ccc(NC(=O)N(C)C[C@@H]2OCCCC[C@@H](C)Oc3ccc(NS(=O)(=O)c4ccc(Cl)cc4)cc3C(=O)N([C@H](C)CO)C[C@@H]2C)cc1
9	-42[16.7 µM]	COc1ccc(NC(=O)N(C)C[C@H]2Oc3c(NS(=O)(=O)c4cn(C)cn4)cccc3C(=O)N([C@H](C)CO)C[C@H]2C)cc1
-23	-179[16.7 µM]	C[C@H](CO)N1C[C@H](C)[C@@H](CN(C)C(=O)C2CCCCC2)OCCCC[C@H](C)Oc2ccc(NS(=O)(=O)c3ccc(Cl)cc3)cc2C1=O
-5	1[16.7 µM]	COCC(=O)Nc1ccc2c(c1)C(=O)N(C)[C@H]1CC[C@H](CC(=O)O)O[C@@H]1CO2
12	18[16.7 µM]	CNC[C@@H]1Oc2c(NC(=O)c3nc4ccccc4s3)cccc2C(=O)N([C@H](C)CO)C[C@@H]1C
23	7[16.7 µM]	Cc1ccc(-c2ccc3c(c2)O[C@@H](CN(C)C(=O)C2CC2)[C@H](C)CN([C@H](C)CO)S3(=O)=O)cc1
38	24[16.7 µM]	C[C@@H]1CCCCO[C@@H](CN(C)Cc2ccc(Cl)c(Cl)c2)[C@@H](C)CN([C@@H](C)CO)C(=O)c2cc(NS(=O)(=O)c3cccs3)ccc2O1

Later entries
Yeast UUG start	HIV Env fusion	SMILES
-8	-28[16.7 µM]	COc1ccc(S(=O)(=O)N(C)C[C@H]2Oc3ccc(NS(C)(=O)=O)cc3C(=O)N([C@H](C)CO)C[C@@H]2C)cc1
7	-13[16.7 µM]	CNC[C@@H]1Oc2cc(C#Cc3ccccn3)ccc2S(=O)(=O)N([C@@H](C)CO)C[C@H]1C
9	-10[16.7 µM]	C[C@@H]1CN([C@@H](C)CO)C(=O)c2cc(NC(=O)Cc3ccccc3)ccc2O[C@@H](C)CCCCO[C@@H]1CN(C)S(=O)(=O)c1cn(C)cn1
-13	-3[16.7 µM]	C[C@@H]1CN([C@@H](C)CO)C(=O)c2cc(C#Cc3cccc(F)c3)cnc2O[C@@H]1CN(C)C(=O)C1CCOCC1
-16	-11[16.7 µM]	N#C[C@H]1[C@H](c2ccc(C#CC3CCCCC3)cc2)[C@H](CO)N1C(=O)Cc1ccccn1
-1	13[16.7 µM]	O=C(C[C@H]1CC[C@H](NC(=O)C2CCOCC2)[C@H](CO)O1)Nc1ccc(-c2ccccc2)cc1
3	-2[16.7 µM]	C[C@H]1CN([C@@H](C)CO)C(=O)Cc2cc(NC(=O)Nc3ccc4c(c3)OCO4)ccc2O[C@H]1CN(C)C(=O)Nc1ccc(C(F)(F)F)cc1
-1	-16[16.7 µM]	CC(C)CC#Cc1ccc2c(c1)O[C@@H](CN(C)Cc1cccc(F)c1)[C@H](C)CN([C@@H](C)CO)S2(=O)=O

Of the compounds above, these have an aryl methoxy group.
Yeast UUG start	HIV Env fusion	SMILES
1	5[16.7 µM]	CNC[C@@H]1Oc2ncc(-c3ccc(OC)cc3)cc2C(=O)N([C@H](C)CO)C[C@H]1C
-7	18[16.7 µM]	COc1ccc(S(=O)(=O)N(C)C[C@@H]2OCCCC[C@H](C)Oc3ccc(NC(=O)Nc4ccc5c(c4)OCO5)cc3C(=O)N([C@H](C)CO)C[C@H]2C)cc1
-3	-12[16.7 µM]	COc1ccc(S(=O)(=O)Nc2ccc3c(c2)CC(=O)N([C@@H](C)CO)C[C@H](C)[C@H](CN(C)CC2CCCCC2)O3)cc1
-7	-8[16.7 µM]	COc1ccc(-c2ccc3c(c2)O[C@H](CN(C)Cc2cccnc2)[C@@H](C)CN([C@@H](C)CO)S3(=O)=O)cc1
6	1[16.7 µM]	COc1ccc(NC(=O)N(C)C[C@@H]2OCCCC[C@@H](C)Oc3ccc(NS(=O)(=O)c4ccc(Cl)cc4)cc3C(=O)N([C@H](C)CO)C[C@@H]2C)cc1
9	-42[16.7 µM]	COc1ccc(NC(=O)N(C)C[C@H]2Oc3c(NS(=O)(=O)c4cn(C)cn4)cccc3C(=O)N([C@H](C)CO)C[C@H]2C)cc1
-8	-28[16.7 µM]	COc1ccc(S(=O)(=O)N(C)C[C@H]2Oc3ccc(NS(C)(=O)=O)cc3C(=O)N([C@H](C)CO)C[C@@H]2C)cc1
